TRPML1 ag: agonists of human TRPML1 channel; actives 0.12% (n = 410,000); activation, % (concentration not given with the values); TRPML1-expressing cells, Ca2+ dye fluorescence, FDSS; host cell line not named in the record; reference of the full effect not given here; AID 624414; Q9GZU1; in the data active = activation above about 50%; inconclusive = about 30% to 50%; inactive = below about 30%; further: 0% is about no effect; the text of the record puts the active cut at 80%
Target sequence (Q9GZU1 whole entry, looked up): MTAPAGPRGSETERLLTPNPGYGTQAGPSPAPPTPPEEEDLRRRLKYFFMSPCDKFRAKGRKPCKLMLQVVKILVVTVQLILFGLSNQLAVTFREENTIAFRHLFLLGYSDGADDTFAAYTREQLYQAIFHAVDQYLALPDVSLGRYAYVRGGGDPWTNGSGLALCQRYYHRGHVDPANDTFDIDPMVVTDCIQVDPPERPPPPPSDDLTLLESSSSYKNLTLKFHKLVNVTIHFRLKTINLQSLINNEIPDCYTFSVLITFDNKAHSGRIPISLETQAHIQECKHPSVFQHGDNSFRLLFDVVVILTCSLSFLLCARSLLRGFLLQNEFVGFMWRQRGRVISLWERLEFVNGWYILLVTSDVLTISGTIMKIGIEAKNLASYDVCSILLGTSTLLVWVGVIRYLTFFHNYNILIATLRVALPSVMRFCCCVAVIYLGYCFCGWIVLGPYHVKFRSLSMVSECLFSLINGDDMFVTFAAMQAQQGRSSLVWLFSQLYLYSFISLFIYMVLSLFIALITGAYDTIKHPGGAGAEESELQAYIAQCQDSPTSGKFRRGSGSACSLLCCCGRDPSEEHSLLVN
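Calcium fluorescence on an FDSS kinetic reader gave the read-out. Tet-induced TRPML1-DL cells were plated overnight, dye-loaded (Ca8 with quencher, 45-90 min, room temperature, dark), then read 110 s after compound addition, and again 110 s after 4uM final 54-4 (EC80).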
D2 PAM: positive allosteric modulators of human D2 dopamine receptor; P14416; DiscoveRx D2 beta-arrestin cells, luminescence, 90 min; 100% = 57 uM dopamine signal; potentiation, % (concentration not given with the values); actives 0.23% (n = 360,000); AID 624464; active = potentiation of 50% or more; inconclusive = 30% to 50%; inactive = 30% or less;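 further: compound concentration not given in the record; tested on top of an EC20 dose of dopamine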
Target sequence (P14416 whole entry, looked up): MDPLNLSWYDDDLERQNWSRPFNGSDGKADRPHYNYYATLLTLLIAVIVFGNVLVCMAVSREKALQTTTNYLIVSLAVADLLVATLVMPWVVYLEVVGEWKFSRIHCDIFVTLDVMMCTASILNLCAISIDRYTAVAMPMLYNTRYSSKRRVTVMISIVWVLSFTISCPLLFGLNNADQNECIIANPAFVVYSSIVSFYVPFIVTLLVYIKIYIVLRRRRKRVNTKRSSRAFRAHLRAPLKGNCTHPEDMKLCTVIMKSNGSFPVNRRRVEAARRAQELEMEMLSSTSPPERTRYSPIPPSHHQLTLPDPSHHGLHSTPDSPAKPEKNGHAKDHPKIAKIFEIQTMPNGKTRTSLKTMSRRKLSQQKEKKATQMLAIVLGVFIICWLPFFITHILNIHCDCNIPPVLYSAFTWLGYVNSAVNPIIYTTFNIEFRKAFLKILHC
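D2 cells co-treated with compound plus 50 nM dopamine (EC20) for 90 min at 37 deg C to detect potentiation. Beta-arrestin recruitment was read as enzyme-fragment luminescence after 1 h at ambient temperature. Full response was set by 57 uM dopamine.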
CtBP-E1A blk: inhibitors of CtBP/E1A interaction | AlphaScreen GST-E1A/His-CtBP binding, 1536-well; hits give low values; control for the full effect not named in the record | activity change, % (concentration not given with the values) | actives 0.49% (n = 340,000) | AID 651724; in the data active means activity change below about -65%; inconclusive means about -30% to -65%; inactive means above about -30%; further: on the % scale 0 is the no-effect control and ±100 the full control effect
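Protein mix (5X: 125 nM each GST-E1A, His-CtBP) was incubated with pinned compound 2 h at 37 deg C in dark, in 50 mM Tris pH 8.0 buffer with 300 mM NaCl. Glutathione donor and nickel acceptor beads followed; AlphaScreen signal read after 1 h.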
Six1-Eya2 blk: Six1/Eya2 interaction inhibition | Q15475+O00167 | AlphaScreen GST-Six1/His-Eya2 binding, biochemical; hits give low values; control for the full effect not named in the record | activity change, % (no concentration beside the values) | actives 0.56% (n = 360,000); in the data active = activity change below about -65%; inconclusive = about -30% to -65%; inactive = above about -30%; further: on the % scale 0 is the no-effect control and ±100 the full control effect; compound concentration not given in the record
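Compounds are tested against tagged Six1 and Eya2 proteins bridged by glutathione donor and nickel acceptor beads; after a one-hour incubation at 37 °C without light, AlphaScreen emission is recorded.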
D2 ag: activates the human D2 dopamine receptor | DiscoveRx PathHunter D2 beta-arrestin, luminescence, 90 min; 100% = 57 uM dopamine signal | activation, % (no concentration beside the values) | actives 0.084% (n = 360,000); in the data active = activation above about 40%; inconclusive = about 15% to 40%; inactive = below about 15%; further: compound concentration not given in the record; the text of the record calls up to 30% inactive
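DiscoveRx PathHunter D2 beta-arrestin cells (2,100/well) attached overnight, then compound-stimulated 90 min at 37 C in HBSS/10 mM HEPES/0.1% Tween-20 buffer; beta-galactosidase complementation read by luminescence after 1 h at ambient temperature. Dopamine 57 uM final (EC100) as control.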
PINK1 modulator: PINK1 expression modulation; PINK1 immunofluorescence, high-content cytometry, 24 h; AID 624263; Potency, µM (titrated, usually from 76.6 µM), for inactives: at the highest dose activation (PINK1 increase), most hits filed as activators; actives 0.2% (n = 410,000); active = well fitted activation curve with a large enough effect; inconclusive = small, poorly fitted or top-dose-only effect; inactive = flat fitted curve, though single readings scatter; cell line not stated here;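 further: potency means the concentration at half of the fitted maximal effect; % of control where 0% means no effect; nearly all actives have a fitted effect of over 65% in size; a mitochondrial uncoupler was the plate control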
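PINK1 protein level read as immunofluorescence by microplate cytometer in a fixed, stained stable cell line after 24 h exposure to five compound concentrations, with CCCP as control.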
The depositor's hits bear a star; ? = inconclusive; . = not tested or not shown; [ ] = remark or other dose.

SMILES	TRPML1 ag	D2 PAM	CtBP-E1A blk	Six1-Eya2 blk	D2 ag	PINK1 modulator
O=C(Nc1ccc(N2CCN(C(=O)c3ccc(Cl)cc3)CC2)cc1)c1cc2ccccc2o1	0.8	-6	0	-2	-2.3	?
COc1cc(OC)cc(C(=O)OC/C(O)=C(\C#N)c2nc3ccccc3[nH]2)c1	1.5	-4	-6	0	-2.3	9.9%
O=C(NC(=S)N1CCCCC1CO)C12CC3CC(CC(C3)C1)C2 (stereo unspecified)	.	-4	4	1	-2.4	1.0%
CCn1c(SCC(=O)O)nc2sc3c(c2c1=O)CCC3	0.7	9	1	-4	-2.1	5.3%
Cc1nc2cc3c(cc2s1)OCO3	-0.4	-3	-28	-3	-7.4	-2.4%
COC(=O)C(O)(NC(=O)c1ccncc1)C(F)(F)F (stereo unspecified)	0.4	-8	.	-11	-4.0	0.2%
O=C(CC12CC3CC(C1)CC(CC(=O)NC1=NCCS1)(C3)C2)NC1=NCCS1	0.3	-31	1	-8	-7.8	9.2%
O=C(COc1ccc2c3c(c(=O)oc2c1)CCCC3)N1CCN(c2ccccc2)CC1	-0.2	0	.	3	-4.0	-0.2%
CC1Cc2cc(S(=O)(=O)CCC(=O)NC3CCCCC3)ccc2N1C(=O)C1CC1 (stereo unspecified)	1.8	-2	8	6	6.1	2.1%
CCOC(=O)c1nn(-c2ccccc2)c2nnc(Cc3ccc(Cl)cc3)c(=O)n12	1.1	-9	-5	3	-4.7	0.3%
COc1ccc(C)cc1NC(=O)c1cc2c(CO)cnc(C)c2oc1=N	0.0	-5	1	-2	-4.4	3.7%
Cc1ccc(C2CC(c3cccc(Br)c3)Nc3nnnn32)cc1 (stereo unspecified)	0.9	-22	-1	-7	-4.7	3.5%
CCOC(=O)CSc1nnnn1-c1cccc2ccccc12	-0.7	-20	11	3	-2.5	1.8%
CC(CC(=O)Nc1cccc(F)c1)S(=O)(=O)c1ccc2c(c1)NC(=O)CO2 (stereo unspecified)	-0.8	12	7	4	0.9	-1.0%
O=C(Cn1c(=O)oc2ccccc21)N1CCN(c2ccccc2)CC1	0.8	-5	-4	-1	-3.6	-0.9%
O=C(c1cc2ccccc2oc1=O)N(Cc1cccs1)Cc1cccs1	2.6	8	4	7	-2.0	-0.2%
CC(=O)Nc1ccc(C(=O)Nc2ccncc2)cc1	-0.3	4	.	0	3.2	-0.1%
O=C(NCc1ccco1)c1csc2c1CCCC2	-0.5	-7	.	-1	4.2	1.0%
CS(=O)(=O)N(CC(=O)Nc1ccccc1C(=O)N1CCOCC1)c1ccc2c(c1)OCO2	0.4	-9	-22	-9	-3.8	-4.7%[38.3 µM]
O=C(CSCc1ccccc1)NNC(=S)Nc1cccc(Cl)c1Cl	-0.9	-28	-11	-20	-8.5	-0.1%

Entries shown so far containing an aryl thioether with sulfur outside any ring (two):
SMILES	TRPML1 ag	D2 PAM	CtBP-E1A blk	Six1-Eya2 blk	D2 ag	PINK1 modulator
CCn1c(SCC(=O)O)nc2sc3c(c2c1=O)CCC3	0.7	9	1	-4	-2.1	5.3%
CCOC(=O)CSc1nnnn1-c1cccc2ccccc12	-0.7	-20	11	3	-2.5	1.8%

(next part)
SMILES	TRPML1 ag	D2 PAM	CtBP-E1A blk	Six1-Eya2 blk	D2 ag	PINK1 modulator
CC12CC(c3ccccc3O1)C(/C(N)=N/NC(=O)c1ccc(F)cc1)C(=O)N2 (stereo unspecified)	9.9	-4	15	3	-3.0	-0.6%
COC(=O)C1=C(C)NC(C)=C(C(=O)OC)C1C(=O)OCc1nnc(-c2ccccc2Cl)o1	0.5	-6	5	3	-2.2	3.9%
CSc1nnc(-c2ccc(NC(N)=S)cc2)o1	0.2	-2	.	2	-5.6	1.9%
O=C(NC(Cc1ccccc1)C(=O)O)/C(=C/c1cccc(Br)c1)NC(=O)c1ccco1 (stereo unspecified)	1.4	2	-10	-8	0.9	1.9%
CN(CC(=O)Nc1ccccc1Cl)C(=O)COC(=O)CSc1ccc(Cl)cc1	0.8	-4	-4	3	-1.7	-1.0%
CCc1ccc(NC(=O)c2cnn(-c3ccccc3)c2C)cc1	-0.4	-11	7	4	-4.8	10%
O=C1c2cc([N+](=O)[O-])ccc2-c2cc(Br)c(N=C(NO)C(F)(F)F)cc21	1.1	-14	-9	-21	8.9	-6.6%
CCOP(=O)(OCC)C1NC(=O)N(c2ccccc2)C1=O (stereo unspecified)	1.5	-5	12	7	7.9	-1.1%
COc1ccc(/C([O-])=C(/C(=S)Nc2ccc(C)c(C)c2)n2c[n+](C)c3ccccc32)cc1OC	-0.7	-10	-20	-6	-6.2	0.1%
O=[N+]([O-])c1ccccc1/C=N/n1c(-c2cccnc2)n[nH]c1=S	-1.3	20	-15	6	-3.4	-0.8%
CC(CNC(=O)CCc1ccccc1)NC(=O)CCc1ccccc1 (stereo unspecified)	-0.4	-6	5	11	-3.0	1.1%
O=C(c1cc(-c2cccs2)nc2ccccc12)N1CCN(CCO)CC1	-0.4	-3	2	-7	-2.5	-5.4%
Cc1ccc(-c2ccc(S(=O)(=O)N3CCN(C)CC3)cc2)cc1	-0.7	-14	-5	-8	-3.0	27%[38.3 µM]
CCOc1ccccc1NC(=O)[C@@H](NC(=O)c1ccccc1F)C(C)C	2.0	-6	-6	-13	1.1	9.6%
CCCCCCN1CC(O)=C(c2ccccc2)C1=N	0.4	-15	8	0	-0.7	-1.1%
CC(=O)c1c[nH]c(C(=O)Nc2ccc(N3CCCCCC3)cc2)c1	0.5	10	-24	-28	7.5	11%
COc1nccnc1NS(=O)(=O)c1ccc(N=Cc2c(C)[nH]n(-c3ccc(C)c(C)c3)c2=O)cc1	0.3	-6	?	?	-0.6	-0.2%[38.3 µM]
Cc1ccc(CN2C(=O)CCC2(C)c2nnnn2Cc2ccccc2)cc1 (stereo unspecified)	1.1	.	2	7	.	0.0%
Cn1nc(CC(=O)NC2CCCCC2)c2ccccc2c1=O	-0.4	1	0	4	3.7	4.0%[38.3 µM]
CCn1c(SCC(=O)Nc2nc(C)cs2)nnc1-c1cccnc1	-0.2	-5	0	-1	0.5	0.7%[38.3 µM]

Retrieved one by one from the entries so far, four records:
SMILES	TRPML1 ag	D2 PAM	CtBP-E1A blk	Six1-Eya2 blk	D2 ag	PINK1 modulator
CCOP(=O)(OCC)C1NC(=O)N(c2ccccc2)C1=O (stereo unspecified)	1.5	-5	12	7	7.9	-1.1%
O=C(COc1ccc2c3c(c(=O)oc2c1)CCCC3)N1CCN(c2ccccc2)CC1	-0.2	0	.	3	-4.0	-0.2%
COC(=O)C(O)(NC(=O)c1ccncc1)C(F)(F)F (stereo unspecified)	0.4	-8	.	-11	-4.0	0.2%
CN(CC(=O)Nc1ccccc1Cl)C(=O)COC(=O)CSc1ccc(Cl)cc1	0.8	-4	-4	3	-1.7	-1.0%

Next section
SMILES	TRPML1 ag	D2 PAM	CtBP-E1A blk	Six1-Eya2 blk	D2 ag	PINK1 modulator
Cc1ccc(/C(N)=N/OC(=O)c2cc(-c3ccccc3)nc3ccccc23)cc1	-0.4	-3	-1	0	-4.1	4.6%
CC(=O)Nc1ccc(S(=O)(=O)Nc2nc3ccccc3nc2Nc2ccc(O)c(C(=O)O)c2)cc1	-0.3	-1	.	-24	-0.8	3.0%
CCCCC(=O)Nc1nn(CC(C)C)c2nc3ccccc3cc12	0.7	2	16	10	-1.6	5.4%
COc1cc(C(=O)N2CCC3(CC2)NCCc2[nH]cnc23)cc(OC)c1OC	-0.2	-8	1	-1	-2.4	0.8%
CC(C)c1cc(C(=O)Nc2sc3c(c2C#N)CCC3)no1	0.8	-8	0	0	-3.6	?
COc1ccc(-n2c(SCC(=O)N(C)c3ccccc3)nc3c([nH]c4ccccc43)c2=O)cc1OC	-0.3	2	0	5	0.9	2.2%
Cc1ccc(C)c(S(=O)(=O)NCc2ccncc2)c1	-0.8	10	4	3	-1.1	0.9%
CC(OC(=O)c1nc(Cl)ccc1Cl)C(=O)Nc1ccccc1F (stereo unspecified)	0.1	-2	1	7	-3.4	4.2%
COc1ccc(S(=O)(=O)N2CCCC(C(=O)NCc3ccccn3)C2)cc1Cl (stereo unspecified)	0.3	-3	4	-2	1.4	-5.0%[38.3 µM]
Cc1ccc(-c2[nH]ncc2CNCCc2cnn(-c3ccccc3)c2)cc1C	0.3	-8	-5	-6	-0.5	-2.4%
CC1(C)CC(=O)C(CCCN2C(=O)c3ccccc3C2=O)C(=O)C1	-0.4	-5	2	0	-1.4	2.5%[38.3 µM]
Cc1cc(NC(=O)c2cc3cc([N+](=O)[O-])ccc3s2)no1	0.0	-11	2	2	-1.6	0.1%
COc1ccc(NC(=O)c2ccc(C)cc2Cl)c([N+](=O)[O-])c1	1.7	6	-10	-13	7.5	2.3%
CC1CCC(C(C)C)C(OC(=O)Cn2c(-c3ccc(Cl)cc3)[n+](C)c3ccccc32)C1 (stereo unspecified)	1.1	-22	-1	-2	-2.3	-2.4%
COc1cc(C2Nc3ccc4ncccc4c3C3=C2C(=O)CCC3)ccc1O (stereo unspecified)	4.2	-8	-7	-9	-1.7	-0.9%
O=C(CCc1ccccc1)NCC1(c2ccccc2)CCCC1	1.4	0	4	6	0.7	1.7%
CCn1c(SCC(=O)c2ccccc2)nnc1-c1cc2cc(Br)ccc2o1	0.3	-4	1	-1	2.1	11%
COc1ccc(-c2nnc(SCCC(=O)O)n2-c2ccccc2)cc1	3.0	-6	2	1	0.0	1.4%[38.3 µM]
CC1=NN(/C(=N\c2nnc(C)s2)Nc2ccccc2)[C@H](c2ccc(C)cc2)S1	-0.1	-12	4	-4	-3.5	-3.9%
NC(CCc1ccccc1)c1csc(Nc2ccc(C(=O)NCCO)cc2)n1 (stereo unspecified)	-0.2	-2	-5	-12	-1.3	0.7%
Cn1c2ccccc2c(=O)c2c(=O)n(Cc3ccco3)c(COc3ccccc3)nc21	-0.8	-6	-4	3	-1.0	7.5%
Cc1ccc(CNC(=O)C2CCC(=O)N(CCc3cccc(F)c3)C2)s1 (stereo unspecified)	-0.1	2	7	1	-0.6	1.4%
CC(C)C(=O)Nc1ccc(N2CCCC2)c(Cl)c1	-0.5	-12	10	-10	-1.3	0.7%
Cc1nnc2sc(-c3cccc(F)c3)nn2c1=O	1.1	1	-3	-14	-4.2	1.1%
CN(Cc1ccc(F)cc1)Cc1nc(-c2cnccn2)no1	0.0	-9	8	-1	-4.5	1.8%

Already shown: 6 of the compounds above.
SMILES	TRPML1 ag	D2 PAM	CtBP-E1A blk	Six1-Eya2 blk	D2 ag	PINK1 modulator
NC(CCc1ccccc1)c1csc(Nc2ccc(C(=O)NCCO)cc2)n1 (stereo unspecified)	-0.2	-2	-5	-12	-1.3	0.7%
Cn1c2ccccc2c(=O)c2c(=O)n(Cc3ccco3)c(COc3ccccc3)nc21	-0.8	-6	-4	3	-1.0	7.5%
Cc1ccc(CNC(=O)C2CCC(=O)N(CCc3cccc(F)c3)C2)s1 (stereo unspecified)	-0.1	2	7	1	-0.6	1.4%
CC(C)C(=O)Nc1ccc(N2CCCC2)c(Cl)c1	-0.5	-12	10	-10	-1.3	0.7%
Cc1nnc2sc(-c3cccc(F)c3)nn2c1=O	1.1	1	-3	-14	-4.2	1.1%
CN(Cc1ccc(F)cc1)Cc1nc(-c2cnccn2)no1	0.0	-9	8	-1	-4.5	1.8%

Screening results deposited in PubChem by National Center for Advancing Translational Sciences (NCATS).

No enrichment for hits. Share with any hit: about 1.3%.
